Bioassay records (PubChem)
Vaccinia inh: blocks a specific stage of Vaccinia orthopoxvirus infection | Vaccinia-infected cells, mCherry/Venus stage reporter fluorescence; active compounds read low; some inactives read as strong as hits | activity change (mCherry), % (concentration not given with the values) | actives 0.01% (n = 89,000) | AID 1053133;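 active = mCherry past -33% and 40 or more points under the early reporter, replicates agreeing; inconclusive = past -33% without that gap or agreement; tested in A549 cells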;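 note: scaled between vehicle wells and reference inhibitor wells; 23 nL library stock went into each well; one replicate is shown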
Vaccinia inh Venus: second read-out of Vaccinia inh, no call of its own (marks repeat the call); activity change (Venus), %; measured here: Venus reporter, other viral stage;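 negative = less Venus signal; first of two replicates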
Numbers without * were called inactive; ? = inconclusive; nt = not tested or not shown; & = joins results of further samples. An excerpt; count on the stated rates, not on these rows.

Sample of the layout (6 entries):
SMILES | Vaccinia inh | Vaccinia inh Venus
C[C@@H]1CN([C@@H](C)CO)C(=O)Cc2cc(NC(=O)Nc3cccc4ccccc34)ccc2O[C@H]1CN(C)C(=O)NC1CCCCC1 | 3 | 5
C[C@H](CO)N1C[C@H](C)[C@@H](CN(C)S(C)(=O)=O)Oc2ncc(-c3cccnc3)cc2C1=O | 12 | 6
C[C@H](CO)N1C[C@H](C)[C@@H](CN(C)S(=O)(=O)c2ccc(Cl)cc2)OCCCC[C@H](C)Oc2ccc(NC(=O)c3ccccc3)cc2C1=O | -8 | -4
COc1ccccc1CNC(=O)C[C@@H]1CC[C@@H]2[C@H](COc3ccc(NS(=O)(=O)c4ccc(C)cc4)cc3C(=O)N2C)O1 | -10 | 1
C[C@H](CO)N1C[C@H](C)[C@@H](CN(C)Cc2ccccc2)OCCCC[C@H](C)Oc2ccc(NC(=O)Nc3ccc(F)cc3)cc2C1=O | ? | nt
C[C@H](CO)N1C[C@H](C)[C@H](CN(C)C(=O)NC2CCCCC2)Oc2ccc(NC(=O)C3CC3)cc2C1=O | 10 | 10

The whole of this part (from the top)
SMILES | Vaccinia inh | Vaccinia inh Venus
C[C@@H]1CN([C@@H](C)CO)C(=O)Cc2cc(NC(=O)Nc3cccc4ccccc34)ccc2O[C@H]1CN(C)C(=O)NC1CCCCC1 | 3 | 5
C[C@H](CO)N1C[C@H](C)[C@@H](CN(C)S(C)(=O)=O)Oc2ncc(-c3cccnc3)cc2C1=O | 12 | 6
C[C@H](CO)N1C[C@H](C)[C@@H](CN(C)S(=O)(=O)c2ccc(Cl)cc2)OCCCC[C@H](C)Oc2ccc(NC(=O)c3ccccc3)cc2C1=O | -8 | -4
COc1ccccc1CNC(=O)C[C@@H]1CC[C@@H]2[C@H](COc3ccc(NS(=O)(=O)c4ccc(C)cc4)cc3C(=O)N2C)O1 | -10 | 1
C[C@H](CO)N1C[C@H](C)[C@@H](CN(C)Cc2ccccc2)OCCCC[C@H](C)Oc2ccc(NC(=O)Nc3ccc(F)cc3)cc2C1=O | ? | nt
C[C@H](CO)N1C[C@H](C)[C@H](CN(C)C(=O)NC2CCCCC2)Oc2ccc(NC(=O)C3CC3)cc2C1=O | 10 | 10
C[C@@H]1CN([C@H](C)CO)C(=O)c2cc(-c3cccc(C#N)c3)cnc2O[C@H]1CN(C)Cc1cncnc1 | 23 | 18
COc1cccc(S(=O)(=O)Nc2ccc3c(c2)OC[C@H](C)NC[C@H](C)[C@H](OC)CN(C)C3=O)c1 | 10 | 3
CCC(=O)N1CC(=O)N2[C@H](CO)[C@H](c3ccc(C#Cc4cccc(OC)c4)cc3)[C@H]2C1 | ? | nt
COc1cccc(NC(=O)N2C[C@H](O)COC[C@H]3O[C@H](CC(=O)NC4Cc5ccccc5C4)CC[C@@H]32)c1 | -3 | -3
CC(C)NC(=O)N1CC[C@@H]2[C@H]1c1cc(-c3ccc(F)cc3)ccc1N(C)[C@H]2CO | -32 | -25
COCC(=O)N1C[C@H](C)[C@H](OC)CN(C)C(=O)c2cc(NC(=O)c3cc(C)on3)ccc2OC[C@H]1C | -5 | 0
COCC#Cc1ccc2c(c1)O[C@@H](CN(C)S(=O)(=O)c1ccc(F)cc1)[C@@H](C)CN([C@H](C)CO)S2(=O)=O | -16 | -14
CCNC(=O)C[C@@H]1CC[C@@H]2[C@H](COc3ccc(NC(=O)c4ccc(C(F)(F)F)cc4)cc3C(=O)N2C)O1 | -3 | -7
C[C@@H]1CCCCO[C@@H](CN(C)Cc2ccc(C(F)(F)F)cc2)[C@H](C)CN([C@@H](C)CO)C(=O)c2cc(NC(=O)CCC(F)(F)F)ccc2O1 | ? | nt
Cc1cc(C(=O)Nc2cccc3c2O[C@@H](CN(C)S(=O)(=O)c2cccs2)[C@H](C)CN([C@@H](C)CO)C3=O)n(C)n1 | 1 | -7
CN(C)C(=O)C[C@@H]1CC[C@@H]2[C@H](COc3ccc(NC(=O)c4cnccn4)cc3C(=O)N2C)O1 | 15 | 15
O=C(C[C@H]1CC[C@@H]2[C@H](COC[C@H](O)CN2Cc2cc(F)cc(F)c2)O1)NC1CCCC1 | -2 | 3
CCS(=O)(=O)N1CCCCN2[C@@H](CO)[C@H](c3ccc(C#CC(C)(C)O)cc3)[C@@H]2C1 | 19 | 12
C[C@H](CO)N1C[C@H](C)[C@H](CN(C)C(=O)Nc2ccc(F)cc2)OCCCC[C@H](C)Oc2ccc(NC(=O)Nc3ccc4c(c3)OCO4)cc2C1=O | -6 | -8
COCC(=O)Nc1ccc2c(c1)[C@H]1C[C@@H](CC(=O)NCc3ccccc3OC)O[C@H](CO)[C@H]1O2 | 4 | 9
C[C@H]1CN([C@@H](C)CO)C(=O)c2c(c3ccccc3n2C)-c2ccccc2CO[C@@H]1CN(C)C(=O)c1ccccc1 | -10 | -17
CCCNC(=O)C[C@@H]1C[C@H]2c3cc(N(C)C)ccc3O[C@H]2[C@@H](CO)O1 | 2 | 12
O=C(C1CCOCC1)N1CC(=O)N2[C@H](C1)[C@@H](c1ccc(C#CC3CCCCC3)cc1)[C@@H]2CO | -11 | -24
C[C@@H]1CN([C@@H](C)CO)C(=O)c2cc(C#CC3CCCCC3)cnc2O[C@@H]1CN(C)C(=O)Nc1ccccc1 | ? | nt
(list continues)
SMILES | Vaccinia inh | Vaccinia inh Venus
C[C@@H]1CN([C@H](C)CO)C(=O)c2cccc(N(C)C)c2O[C@@H]1CN(C)Cc1ccc(Cl)c(Cl)c1 | -21 | -14
C/C=C/c1ccc2c(c1)O[C@@H](CN(C)C(=O)c1ccc(F)cc1)[C@H](C)CN([C@@H](C)CO)S2(=O)=O | 17 | 6
O=C(NCC[C@H]1CC[C@@H](NS(=O)(=O)c2cccc(F)c2)[C@@H](CO)O1)C1CC1 | 4 | -1
O=C(C[C@H]1CC[C@@H]2[C@H](COC[C@@H](O)CN2Cc2ccc(Oc3ccccc3)cc2)O1)N1CCCCC1 | -34 | -20
C[C@@H]1CN([C@@H](C)CO)C(=O)c2cc(NC(=O)c3ccncc3)ccc2O[C@@H](C)CCCCO[C@H]1CN(C)C(=O)C1CCCCC1 | -4 | -5
O=C(C[C@@H]1CC[C@@H]2NC[C@@H](O)COC[C@H]2O1)NCCN1CCCCC1 | 8 | 20
CN(C)C(=O)c1cccc(-c2ccc(C3[C@@H]4CN(S(=O)(=O)Cc5ccccc5)C[C@H]3N4)cc2)c1 (stereo not given in full) | -18 | -23
Cc1noc(C)c1S(=O)(=O)Nc1ccc2c(c1)C(=O)N([C@@H](C)CO)C[C@H](C)[C@H](CN(C)C)OCCCC[C@H](C)O2 | 13 | 12
O=C(CN1CCOCC1)NCC[C@H]1CC[C@H](NC(=O)Nc2ccc(F)cc2)[C@H](CO)O1 | 31 | 20
C[C@@H]1CN([C@@H](C)CO)C(=O)c2ccccc2-c2ccccc2CO[C@@H]1CN(C)Cc1cccc(C(F)(F)F)c1 | ? | nt
CC(C)NC(=O)N(C)C[C@H]1OCc2ccccc2-c2c(n(C)c3ccccc23)C(=O)N([C@H](C)CO)C[C@H]1C | 13 | 11
CN1[C@@H]2c3ccc(-c4ccc(F)cc4)c(=O)n3C[C@H]1[C@H](CO)[C@H]2C(=O)NC1CCCCC1 | 4 | 4
Cc1noc(C)c1S(=O)(=O)Nc1cccc2c1O[C@H](CN(C)Cc1ccc(C(F)(F)F)cc1)[C@H](C)CN([C@H](C)CO)C2=O | -11 | -6
C[C@@H]1CN([C@H](C)CO)C(=O)c2cccc(NS(=O)(=O)c3ccc(Cl)cc3)c2O[C@@H]1CN(C)S(C)(=O)=O | 5 | -2
C[C@H](CO)N1C[C@H](C)[C@@H](CN(C)S(=O)(=O)c2ccccc2)OCCCC[C@H](C)Oc2ccc(NC(=O)c3ccncc3)cc2C1=O | 6 | -2
CCC(=O)N1[C@@H](CO)[C@@H](c2ccc(-c3ccc(F)cc3)cc2)C12CN(C(C)=O)C2 | 3 | 1
COCC(=O)Nc1ccc2c(c1)[C@@H]1C[C@H](CC(=O)N3CCc4ccccc4C3)O[C@@H](CO)[C@@H]1O2 | -6 | -7
COc1ccc(S(=O)(=O)Nc2ccc3c(c2)CC(=O)N([C@@H](C)CO)C[C@H](C)[C@H](CN(C)CC2CCCCC2)O3)cc1 | -29 | -27
CN(C)Cc1cn(CC[C@H]2CC[C@H](NC(=O)Nc3ccccc3F)[C@H](CO)O2)nn1 | 4 | 4
C[C@H](CO)N1C[C@H](C)[C@H](CN(C)Cc2ccc(C(F)(F)F)cc2)Oc2ccc(NS(=O)(=O)c3ccc(F)cc3)cc2C1=O | 5 | 12
C[C@@H]1CCCCO[C@H](CN(C)C(=O)C2CCCCC2)[C@@H](C)CN([C@@H](C)CO)C(=O)c2cc(NC(=O)NC3CCCCC3)ccc2O1 | -17 | -10
O=C(Nc1ccccc1F)N1C[C@@H]2[C@H](c3ccccc31)[C@@H](CO)N2C(=O)Cc1ccccc1 | -3 | -1
CO[C@@H]1CN(C)C(=O)c2cc(NC(C)=O)ccc2OC[C@H](C)N(C(=O)CN(C)C)C[C@@H]1C | 18 | 16
COc1ccc(OC(=O)N(C)C[C@H]2OCc3cnnn3CCCC(=O)N([C@H](C)CO)C[C@@H]2C)cc1 | 10&2 | 11&-4
C[C@@H]1CN([C@H](C)CO)C(=O)c2cc(NC(=O)C3CCCCC3)ccc2O[C@@H]1CN(C)Cc1ccc(C(F)(F)F)cc1 | -33 | -28
Later entries:
SMILES | Vaccinia inh | Vaccinia inh Venus
CC=Cc1ccc2n(c1=O)C[C@H]1[C@H](CO)[C@@H](C(=O)NCC(F)(F)F)N(CCc3ccccc3)[C@@H]21 (mixture of isomers) | 1 | 9
O=C(NC[C@@H]1CC[C@H]2[C@H](CN2C(=O)CN2CCOCC2)O1)NC1CCCCC1 | 3 | 3
Cc1noc(C)c1NC(=O)N(C)C[C@@H]1OCCCC[C@H](C)Oc2ccc(NC(=O)CCC(F)(F)F)cc2C(=O)N([C@H](C)CO)C[C@@H]1C | 28 | 11
CNC[C@@H]1Oc2ccc(NC(=O)Cn3cnnn3)cc2CC(=O)N([C@@H](C)CO)C[C@H]1C | 33 | 14
Cc1noc(C)c1NC(=O)Nc1ccc2c(c1)C(=O)N([C@H](C)CO)C[C@H](C)[C@@H](CN(C)S(=O)(=O)c1ccc(Cl)cc1)O2 | 7 | 0
Cc1ccc(S(=O)(=O)Nc2ccc3c(c2)C(=O)N([C@@H](C)CO)C[C@H](C)[C@H](CN(C)Cc2ccc(C(=O)O)cc2)OCCCC[C@H](C)O3)cc1 | 25 | 18
Cc1ccc(S(=O)(=O)N(C)C[C@@H]2Oc3ccc(NC(=O)CCCN(C)C)cc3C(=O)N([C@@H](C)CO)C[C@@H]2C)cc1 | -1 | -5
CN1c2ccc(-c3cccc(F)c3)cc2[C@H]2[C@H](CCN2C(=O)c2ccccc2F)[C@H]1CO | ? | nt
CN1c2ccc(-c3cccc(F)c3)cc2[C@@H]2[C@@H](CCN2C(=O)Cc2cccnc2)[C@H]1CO | 1 | 0
CCCNC(=O)N1CC(=O)N2[C@H](CO)[C@H](c3ccc(-c4ccc(C)cc4)cc3)[C@@H]2C1 | -11 | -9
CC(C)NC(=O)Nc1ccc2c(c1)CC(=O)N([C@@H](C)CO)C[C@@H](C)[C@H](CN(C)CC1CC1)O2 | 16 | 2
O=C(N[C@H]1CC[C@@H](CC(=O)N2CCOCC2)O[C@@H]1CO)c1ccc2c(c1)OCO2 | 10 | 10
O=C(Cc1ccccn1)N1CC(=O)N2[C@H](CO)[C@@H](c3ccc(C#CCC4CCCC4)cc3)[C@H]2C1 | ? | nt
C[C@@H]1CN([C@H](C)CO)C(=O)c2cc(NS(=O)(=O)c3cccs3)ccc2O[C@@H](C)CCCCO[C@H]1CN(C)S(=O)(=O)c1ccc(Cl)cc1 | 0 | -1
CCC(=O)N[C@H]1C[C@@H]2O[C@@H](CO)CC[C@@H]2O[C@@H]1CCc1ccc(-c2cccc(OC)c2)cc1 | -5 | -8
CCS(=O)(=O)N1CCCCN2[C@H](CO)[C@H](c3ccc(-c4ccc(C(=O)N(C)C)cc4)cc3)[C@@H]2C1 | 22 | 7
CCCN1C[C@@H](C)[C@@H](OC)CN(C)C(=O)c2ccc(NC(=O)c3ccccc3)cc2OC[C@@H]1C | 6 | 3
COc1ccc(S(=O)(=O)N(C)C[C@@H]2OCCCC[C@H](C)Oc3ccc(NC(=O)Nc4ccc5c(c4)OCO5)cc3C(=O)N([C@H](C)CO)C[C@H]2C)cc1 | -2 | 2
C[C@@H]1CN([C@@H](C)CO)C(=O)c2cc(NS(=O)(=O)c3ccc(F)cc3)ccc2O[C@@H]1CN(C)Cc1ccc(C(=O)O)cc1 | 12 | 3
O=C(Nc1ccccc1)N1C[C@H]2[C@@H](c3ccccc31)[C@@H](CO)N2Cc1ccccc1Cl | -23 | -15
CC(C)NC(=O)N(C)C[C@H]1Oc2ccc(NC(=O)C3CC3)cc2CC(=O)N([C@@H](C)CO)C[C@H]1C | 10 | -1
O=C(O)C[C@H]1C[C@H]2c3cc(NC(=O)NC4CCCCC4)ccc3O[C@H]2[C@@H](CO)O1 | 7 | 5
CC(=O)N[C@H]1C[C@@H]2O[C@@H](CO)CC[C@@H]2O[C@@H]1CCc1ccc(C#CC2(O)CCCC2)cc1 | -1 | 1
C[C@@H]1CN([C@H](C)CO)C(=O)Cc2cc(NS(=O)(=O)c3ccc(F)cc3)ccc2O[C@H]1CN(C)CC1CCCCC1 | ? | nt
CN(C)CC(=O)N[C@@H]1CC[C@H](CC(=O)NCCN2CCCCC2)O[C@H]1CO | 18 | 13
C[C@H]1CCCCO[C@H](CN(C)Cc2ccc3c(c2)OCO3)[C@@H](C)CN([C@@H](C)CO)C(=O)c2cc(NS(=O)(=O)c3ccccc3)ccc2O1 | ? | nt

Fetched by compound from the entries so far:
SMILES | Vaccinia inh | Vaccinia inh Venus
CCCNC(=O)N1CC(=O)N2[C@H](CO)[C@H](c3ccc(-c4ccc(C)cc4)cc3)[C@@H]2C1 | -11 | -9
C[C@@H]1CN([C@@H](C)CO)C(=O)c2cc(NS(=O)(=O)c3ccc(F)cc3)ccc2O[C@@H]1CN(C)Cc1ccc(C(=O)O)cc1 | 12 | 3
